Bioassay records as filed in PubChem.
A1 inhib – blocks A1 activity | AID 2241 | 0.51% of 21,000 active | MEF A1-2A-BIM cells, caspase-Glo luminescence, 3 h; percent of clofoctol signal, DMSO as zero | caspase activation, % (test concentration not listed);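 active means most replicate scores above 10, or exactly half above 10 with mean activity above 10; inconclusive means mean activity below 10 while half the replicates exceed 10; inactive means most replicate scores below 10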;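 further: effector caspase 3 and 7 activity cleaving a DEVD luciferin substrate; 50 nL library stock added to about 30 µL; numbers are from one replicate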
BJeLR viab HTS – compounds reducing viability of BJeLR cells; BJeLR fibroblasts viability, CellTiterGlo ATP luminescence, 48 h; HRASV12, hTERT and SV40 LT/ST transformed; viability loss activity score, % (no concentration beside the values); 0.64% of 30,000 active; AID 2275; in the data active means viability loss activity score above about 50%; inconclusive means no clear call, values can overlap the other calls; inactive means below about 35%; about a fifth of its hits are not listed in these tables;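 further: higher score means fewer live cells and less ATP luminescence; stock transfer was 50 or 100 nL into about 30 µL; 0% = vehicle wells and 100% = a reference killing control; one replicate is shown; the record names a cut of 85%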
Numbers without * were called inactive; ? = inconclusive; . = no result given. These rows are one share of the data, so the mix of outcomes need not match the whole.

molecule	A1 inhib	BJeLR viab HTS
C[C@H]1CN([C@@H](C)CO)C(=O)c2cccc(NC(=O)Nc3ccc(C(F)(F)F)cc3)c2O[C@@H]1CN(C)S(=O)(=O)c1ccc(Cl)cc1	.	1.1
C[C@@H]1CN([C@@H](C)CO)C(=O)c2cccc(N(C)C)c2O[C@H]1CN(C)Cc1ccccc1	.	-3.9
C[C@@H]1CN([C@@H](C)CO)C(=O)c2cc(NC(=O)NC3CCCCC3)ccc2O[C@@H]1CN(C)Cc1ccc(C(=O)Nc2ccccc2N)cc1	.	9.7
COc1cc(OC)c2c(c1O)OC(c1ccccc1)CC2=O (stereo unspecified)	-0.5	-2.6
Cc1cccc(NC(=O)COC(=O)/C=C/c2ccc(F)cc2)c1C	.	-5.4
Cc1noc(C)c1NC(=O)N(C)C[C@@H]1Oc2ccc(NC(=O)C3CCCCC3)cc2C(=O)N([C@@H](C)CO)C[C@@H]1C	0.8	-0.8
O=C(CN1C(=O)C2C3C=CC(C3)C2C1=O)NC1CCCc2ccccc21 (stereo unspecified)	.	2.7
C[C@@H]1CN([C@H](C)CO)C(=O)c2cccc(NC(=O)C3CCOCC3)c2O[C@@H]1CN(C)Cc1ccc(Oc2ccccc2)cc1	.	-9.5
CC1(C)CC(=O)C=C(Nc2ccccc2)C1	0.5	2.3
Cc1cc(C(=O)Nc2cccc3c2O[C@@H](CN(C)Cc2ccc(C(=O)O)cc2)[C@@H](C)CN([C@@H](C)CO)C3=O)n(C)n1	.	0.0
COC(=O)c1c(-c2ccc(Br)cc2)noc1N	.	-6.8
COc1ccc2cc(C3CC(c4ccc(OC)c(OC)c4)=NN3C(=O)c3ccco3)c(Cl)nc2c1 (stereo unspecified)	?	-5.5
C/C=C(\C)CC(/C=C(\C)C(O)C(C)/C=C(\C)C(O)C(C)/C=C/C(O)C/C=C/C(O)C(O)C(=O)O)C(=O)O (stereo unspecified)	0.5	-0.8
Clc1ccc(Nc2nnc3c4ccccc4c4ccccc4c3n2)cc1	0.0	2.0
O=C(NCc1ccccn1)c1cccnc1SCCS(=O)(=O)c1ccc(C(F)(F)F)cn1	-0.5	2.6
COc1ccc(S(=O)(=O)N(C)C[C@H]2Oc3ccc(NC(=O)CCCCCC(=O)Nc4ccccc4N)cc3C(=O)N([C@@H](C)CO)C[C@@H]2C)cc1	.	2.2
COc1ccc(NC(=O)Nc2ccc3c(c2)C(=O)N([C@@H](C)CO)C[C@@H](C)[C@@H](CN(C)S(=O)(=O)c2cn(C)cn2)O3)cc1	0.1	1.3
C[C@@H]1CN([C@H](C)CO)C(=O)c2cc(NC(=O)Nc3ccc(F)cc3)ccc2O[C@H]1CN(C)Cc1ccc(-c2ccccc2)cc1	-0.2	0.3
C[C@@H]1CN([C@@H](C)CO)C(=O)c2cc(NC(=O)CCC(F)(F)F)ccc2O[C@H]1CN(C)S(=O)(=O)c1ccccc1	0.3	6.2
Cc1cc(C)c2c(n1)nn1c(C)c(CCC(=O)NC(C)C)c(C)nc21	0.7	2.9
CC1(C)C(=O)[C@@H]2C[C@@]3(O)C4=CC(=O)O[C@@H](c5ccoc5)[C@]4(C)CCC3[C@@](C)(C2=O)[C@H]1CC(=O)O (stereo partly specified)	-0.3	0.8
Cc1noc(C)c1NC(=O)Nc1ccc2c(c1)C(=O)N([C@H](C)CO)C[C@@H](C)[C@@H](CN(C)C)O2	-0.5	2.3
Cc1c(/C=C2\SC(c3ccccc3)=NC2=O)c(=O)n(-c2ccccc2)n1C	1.0	4.2
Cc1noc(C)c1NC(=O)Nc1ccc2c(c1)C(=O)N([C@@H](C)CO)C[C@@H](C)[C@H](CN(C)Cc1ccc(C(=O)Nc3ccccc3N)cc1)O2	.	5.4
c1ccc(OCCn2c3ccccc3c3nc4ccccc4nc32)cc1	.	-6.9
Cc1cc(C)c(C#N)c(SCCS(=O)(=O)Cc2ccc(Cl)cc2)n1	0.5	1.3
COc1ccc(NC(=O)Nc2ccc3c(c2)C(=O)N([C@@H](C)CO)C[C@H](C)[C@@H](CN(C)C(=O)NC(C)C)O3)cc1	-0.6	0.5
COc1ccc(NC(=O)Nc2ccc3c(c2)C(=O)N([C@H](C)CO)C[C@H](C)[C@H](CN(C)S(=O)(=O)c2ccc(C)cc2)O3)cc1	1.4	-6.5
CC(C)(C)c1ncc(S(=O)(=O)c2ccc(C(F)(F)F)cn2)c(N)n1	-0.2	1.9
CC1(C(=O)Nc2ccccc2)Cc2ccccc2C(=O)O1 (stereo unspecified)	0.0	1.3
CCc1nnc(NC(=O)Cc2coc3ccc(C)cc23)s1	0.8	-1.5
Cc1noc(C)c1S(=O)(=O)Nc1ccc2c(c1)C(=O)N([C@H](C)CO)C[C@@H](C)[C@H](CN(C)CC1CC1)O2	-0.4	-1.3
O=C(NCCCN1CCOCC1)NCc1cccc2ccccc12	0.7	0.9
COc1ccc(S(=O)(=O)N(C)C[C@H]2Oc3ccc(NC(=O)CCN4CCOCC4)cc3C(=O)N([C@H](C)CO)C[C@@H]2C)cc1	0.4	2.5
C[C@@H]1CN([C@@H](C)CO)C(=O)c2cccc(NS(=O)(=O)c3ccc(Cl)cc3)c2O[C@@H]1CN(C)Cc1ccccc1	.	2.7
C[C@@H]1CN([C@@H](C)CO)C(=O)c2cc(NC(=O)C3CC3)ccc2O[C@@H]1CN(C)Cc1ccc2c(c1)OCO2	2.4	3.9
C[C@@H]1CN([C@@H](C)CO)C(=O)c2cccc(NS(=O)(=O)c3cccs3)c2O[C@@H]1CN(C)Cc1ccc2c(c1)OCO2	.	-5.5
O=C1Nc2ccccc2O/C1=C\c1ccccc1	1.0	3.3
C[C@H](CO)N1C[C@H](C)[C@H](CN(C)C(=O)NC2CCCCC2)Oc2c(NC(=O)Nc3ccc(C(F)(F)F)cc3)cccc2C1=O	.	-3.5
COC(=O)C1=C(C)N(C)C(=O)NC1c1ccc(OC)c(Br)c1 (stereo unspecified)	0.6	-1.1
Cc1cc(C)nc(SCc2nnc(SC/C=C/c3ccccc3)o2)n1	-0.1	-3.5
C[C@@H]1CN([C@@H](C)CO)C(=O)c2cc(NC(=O)CCN3CCOCC3)ccc2O[C@H]1CN(C)S(=O)(=O)c1ccccc1	-0.6	-0.9
C[C@@H]1CN([C@H](C)CO)C(=O)c2cc(NS(=O)(=O)c3cn(C)cn3)ccc2O[C@H]1CN(C)S(C)(=O)=O	0.2	-5.3
Nc1c(C(=O)c2ccccc2)sc2nc3c(cc12)CCCC3	-5.8	4.6
COc1cc(O)cc(O)c1C(=O)/C=C/c1ccccc1	0.4	6.1
CCc1cc(=O)oc2cc(C)cc(OCC(=O)C(C)(C)C)c12	1.3	1.0
COc1ccc(NC(=O)C(NS(=O)(=O)c2ccc3c(c2)oc(=O)n3C)C(C)C)c(OC)c1 (stereo unspecified)	.	-1.3
CC(C)c1nc(/N=C/N(C)C)nc(=O)n1C	0.0	-0.2
C[C@H]1CN([C@@H](C)CO)C(=O)c2cccc(NC(=O)c3ccncc3)c2O[C@H]1CN(C)Cc1ccc(Cl)c(Cl)c1	.	-2.8
C[C@@H]1CN([C@H](C)CO)C(=O)c2cc(NC(=O)Nc3ccccc3)ccc2O[C@@H]1CN(C)C(=O)Nc1ccc(C(F)(F)F)cc1	-0.1	-0.2

Going on with the list:
molecule	A1 inhib	BJeLR viab HTS
O=C(CSc1nnc(-c2ccncc2)o1)NC(=O)Nc1ccccc1	0.1	6.9
C[C@@H]1CN([C@H](C)CO)C(=O)c2cccc(NS(=O)(=O)c3ccc(F)cc3)c2O[C@@H]1CN(C)Cc1ccc2c(c1)OCO2	.	-1.4
C[C@H]1CN([C@@H](C)CO)C(=O)c2cccc(NC(=O)Nc3ccc4c(c3)OCO4)c2O[C@H]1CN(C)S(=O)(=O)c1cn(C)cn1	.	-0.2
COc1cc(O)c2c(=O)cc(-c3ccc(O)cc3)oc2c1	-5.1	-3.0
Cc1ccc(S(=O)(=O)N(C)C[C@@H]2Oc3ccc(NC(=O)NC(C)C)cc3C(=O)N([C@@H](C)CO)C[C@H]2C)cc1	0.4	1.4
COc1cc2c(C(=O)N3CCN(c4ccccc4C)CC3)c(C)oc2cc1Br	-0.4	-4.8
C[C@H](CO)N1C[C@H](C)[C@H](CN(C)Cc2ccc(Oc3ccccc3)cc2)Oc2ccc(NC(=O)CCC(F)(F)F)cc2C1=O	1.0	-3.8
C[C@H]1CN([C@@H](C)CO)C(=O)c2cccc(NC(=O)c3cnccn3)c2O[C@@H]1CN(C)C(=O)Nc1ccc(F)cc1	.	1.7
CC(C)(C)NC(=O)CSc1nc2ccccc2[nH]1	-0.6	1.6
COc1ccc(NC(=O)Nc2cccc3c2O[C@H](CN(C)S(=O)(=O)c2ccc(C)cc2)[C@H](C)CN([C@@H](C)CO)C3=O)cc1	.	-0.2
C=C(C(=O)O)[C@@H]1CC[C@@]2(C)CC[C@@H](O)C(=C)C2C1 (stereo partly specified)	0.3	12
COc1ccc(NC(=O)c2ccccc2C(F)(F)F)cc1OC1CCCC1	.	-5.5
C[C@H]1CN([C@@H](C)CO)C(=O)c2cc(NC(=O)CCN3CCOCC3)ccc2O[C@H]1CN(C)Cc1ccc2c(c1)OCO2	0.3	3.2
CN1C(=O)/C(=C\c2cn(CC(=O)N3CCOCC3)c3ccccc23)C(=O)NC1=S	0.7	3.7
Cc1ccc2[nH]c(=O)c3cc(C(=O)NCCCN4CCN(c5ccc(F)cc5)CC4)sc3c2c1	0.8	-3.8
CCc1cccc(O[C@@H]2O[C@@H]3COC(c4ccccc4)O[C@H]3[C@H](O)[C@H]2NC(C)=O)c1 (stereo partly specified)	-0.1	-1.2
CCN1C(=O)CCS(=O)(=O)c2ccccc21	0.1	2.0
O=C(c1cc2n(n1)C(C(F)(F)F)CC(c1ccco1)N2)N1CCCCC1 (stereo unspecified)	-0.3	0.2
CCOC(=O)C1CCN(S(=O)(=O)Cc2ccccc2)C1=O (stereo unspecified)	0.4	-0.4
O=C(NCCCN1CCCCC1)c1ccc2c(c1)sc1nc(-c3ccccc3)cn12	0.2	17
COc1ccc(NC(=O)Nc2ccc3c(c2)C(=O)N([C@H](C)CO)C[C@@H](C)[C@H](CN(C)C(=O)Nc2ccc(OC)cc2)O3)cc1	1.4	-3.1
C[C@H]1CN([C@@H](C)CO)C(=O)c2cccc(NC(=O)NC3CCCCC3)c2O[C@H]1CN(C)Cc1ccc(-c2ccccc2)cc1	.	-0.2
Cc1ccc(Oc2ncccc2NS(=O)(=O)c2ccc(-c3ccccn3)s2)c2c1CCC2	.	2.8
Cc1ccc(Cl)cc1NC(=O)c1ccc(Cn2cc(Cl)cn2)cc1	.	-0.2
Cc1ccc(S(=O)(=O)N(C)C[C@@H]2Oc3ccc(NC(=O)Nc4ccccc4)cc3C(=O)N([C@H](C)CO)C[C@H]2C)cc1	0.2	2.8
CC(=O)Nc1ccccc1NC(=O)c1ccco1	0.0	-12
O=C(NCCC12CC3CC(CC(C3)C1)C2)C1CCCCC1	0.1	2.3
NS(=O)(=O)c1ccc(NC(=S)N2CCC(O)CC2)cc1	0.0	-3.6
C[C@H](CO)N1C[C@H](C)[C@@H](CN(C)S(=O)(=O)c2ccc(F)cc2)Oc2ccc(NC(=O)Cn3cnnn3)cc2C1=O	0.0	-0.8
CCOC(=O)Nc1cc(C(=O)OCC)c(C)nc1C	1.0	-2.9
CCOc1ccc(C(=O)CC(N)C(=O)O)cc1 (stereo unspecified)	0.5	14
C[C@@H]1CN([C@H](C)CO)C(=O)c2cc(NC(=O)C3CC3)ccc2O[C@@H]1CN(C)S(C)(=O)=O	0.4	0.8
C[C@@H]1CN([C@H](C)CO)C(=O)c2cccc(NS(=O)(=O)c3ccc(F)cc3)c2O[C@H]1CN(C)Cc1ccc(C(F)(F)F)cc1	.	7.1
c1ccc2c(c1)N1CCCCCC1N2Cc1ccncc1 (stereo unspecified)	-0.9	-2.6
Cc1ccc(S(=O)(=O)N(C)C[C@H]2Oc3ccc(NC(=O)Nc4ccc(C(F)(F)F)cc4)cc3C(=O)N([C@H](C)CO)C[C@H]2C)cc1	-0.1	-0.1
COc1ccc(NC(=O)Nc2cccc3c2O[C@H](CN(C)Cc2ccccc2)[C@H](C)CN([C@H](C)CO)C3=O)cc1	.	4.9
O=C1Nc2ccccc2O/C1=C\c1ccc(C(=O)NCCC2=CCCCC2)cc1	-0.1	-3.3

In the list so far, 5 have an aryl thioether with sulfur outside any ring.
molecule	A1 inhib	BJeLR viab HTS
O=C(NCc1ccccn1)c1cccnc1SCCS(=O)(=O)c1ccc(C(F)(F)F)cn1	-0.5	2.6
Cc1cc(C)c(C#N)c(SCCS(=O)(=O)Cc2ccc(Cl)cc2)n1	0.5	1.3
Cc1cc(C)nc(SCc2nnc(SC/C=C/c3ccccc3)o2)n1	-0.1	-3.5
O=C(CSc1nnc(-c2ccncc2)o1)NC(=O)Nc1ccccc1	0.1	6.9
CC(C)(C)NC(=O)CSc1nc2ccccc2[nH]1	-0.6	1.6
